Calb FLC: C. albicans growth modulation with fluconazole; growth inhibition, % (no concentration beside the values); 300,000 tested, 0.57% active; AID 1979; C. albicans CaCi-2 (fluconazole-resistant clinical isolate) + fluconazole, Alamar Blue growth, 48 h;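 active = most replicates above 75%; inconclusive = exactly half above 75%; inactive = most below 75%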;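 also: all wells also contain fluconazole at 8 µg/ml as a sub-toxic cotreatment; 0% = median of DMSO wells and 100% = median of geldanamycin control wells; wells of about 8 µL received 7.5 nL stock; the first replicate is given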
LANA-H2A inh: blocks KSHV LANA binding to histone H2A/H2B; inhibition, % (concentration not given with the values); 320,000 tested, 0.6% active; Q9QR71; cell-free LANA-H2A/H2B peptide, fluorescence polarization; in the data active = inhibition mostly above about 10%, no sharp cut-off; inactive = mostly below about 6.7%;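 also: stock transfer was 7.5 nL into about 10 µL; 0% = median of vehicle wells and 100% = median of positive control wells; one replicate is shown; the record names a cut of 25% in any replicate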
Target sequence (Q9QR71 whole entry, looked up): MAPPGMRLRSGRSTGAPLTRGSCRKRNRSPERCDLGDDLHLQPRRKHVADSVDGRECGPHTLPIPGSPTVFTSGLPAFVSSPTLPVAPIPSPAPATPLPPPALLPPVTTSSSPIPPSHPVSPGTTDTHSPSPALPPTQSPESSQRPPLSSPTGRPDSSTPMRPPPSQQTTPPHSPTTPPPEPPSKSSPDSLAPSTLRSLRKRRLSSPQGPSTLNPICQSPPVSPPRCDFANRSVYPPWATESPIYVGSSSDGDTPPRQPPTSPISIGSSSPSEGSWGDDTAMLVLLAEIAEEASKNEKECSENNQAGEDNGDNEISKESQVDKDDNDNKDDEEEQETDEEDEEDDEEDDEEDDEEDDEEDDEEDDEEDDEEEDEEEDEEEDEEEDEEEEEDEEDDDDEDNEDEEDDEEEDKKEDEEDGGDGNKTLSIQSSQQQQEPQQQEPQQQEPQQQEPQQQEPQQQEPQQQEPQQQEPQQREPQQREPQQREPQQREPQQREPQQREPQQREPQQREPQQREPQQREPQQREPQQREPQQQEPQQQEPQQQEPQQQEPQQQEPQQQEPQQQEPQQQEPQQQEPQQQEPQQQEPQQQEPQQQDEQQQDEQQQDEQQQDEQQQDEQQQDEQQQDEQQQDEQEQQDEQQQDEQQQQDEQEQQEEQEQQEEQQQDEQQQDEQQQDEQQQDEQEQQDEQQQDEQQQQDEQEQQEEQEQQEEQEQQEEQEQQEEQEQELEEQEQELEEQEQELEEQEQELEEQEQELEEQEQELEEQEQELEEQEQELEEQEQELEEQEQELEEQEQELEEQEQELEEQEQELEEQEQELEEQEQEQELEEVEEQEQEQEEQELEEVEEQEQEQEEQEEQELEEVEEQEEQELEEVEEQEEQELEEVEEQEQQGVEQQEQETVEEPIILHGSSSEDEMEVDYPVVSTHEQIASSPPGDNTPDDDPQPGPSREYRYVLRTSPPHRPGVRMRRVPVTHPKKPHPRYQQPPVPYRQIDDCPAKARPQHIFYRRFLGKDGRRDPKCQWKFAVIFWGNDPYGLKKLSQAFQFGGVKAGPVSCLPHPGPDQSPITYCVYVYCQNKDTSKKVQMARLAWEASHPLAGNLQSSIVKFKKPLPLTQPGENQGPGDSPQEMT
MLL AF4-AF9 inh: MLL-AF4/AF9 protein interaction inhibition | P42568 | AlphaScreen, biotin-AF4 peptide binding to FLAG-AF9 | inhibition, % at 10 µM | 350,000 tested, 0.47% active;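 active = every replicate reaching a set inhibition limit, whatever the replicate mean, cut at about 25% in these data; inconclusive = mean inhibition reaches that limit but some replicates miss it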;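 also: 0% = plate neutral control median and 100% = total signal loss; the record names both 10 and 1 µM as test concentration; the first replicate is given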
Vif A3G: HIV-1 Vif–A3G interaction blockers – biochemical, TR-FRET, GST-Vif 1-94, biotin-A3G peptide, dose response retest, primary screen (AID 1117319); TR-FRET GST-Vif / biotin-A3G peptide binding; higher % means a stronger effect; test concentration not given here; strong numbers were not always called active; inhibition, %, or IC50 in µM where a hit was titrated; 260,000 tested, 0.57% active;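 active = above the screen mean plus three standard deviations and confirmed in dose response; inconclusive = results disagree or hit not tested in dose response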;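 also: Vif residues 1-94 fused to GST binding biotinylated APOBEC3G peptide 110-148; 0% = full assay without inhibitor and 100% = GST in place of GST-Vif; retest series ran down from 100 µM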
RanGTP-Impb inh: disruptors of Ran-importin-beta complex formation – biochemical, FRET, CFP-Ran, YFP-importin-beta, homogeneous, primary screen; cell-free CFP-Ran/YFP-importin-beta FRET ratio; inhibition, % (no concentration beside the values); 300,000 tested, 1.1% active; AID 2216;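 active = most replicates above 15%; inconclusive = exactly half above 15%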;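 also: 0% = DMSO wells and 100% = Ran loaded with GDP instead of GTP; wells of about 40 µL received 100 nL stock; the first replicate is given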
T cruzi repl: blocks replication of Trypanosoma cruzi; T. cruzi beta-gal in NIH3T3, luminescence, 90 h; inhibition, % (no concentration beside the values); 300,000 tested, 1.4% active;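 active = mean inhibition across valid replicates above about 55%, limit read from the data; inconclusive = mean below that limit but half or more replicates reach it; inactive = mean below it, under half of replicates reach it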;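 also: signal also drops with host cell toxicity which is not excluded here; 0% = plate median of DMSO wells and 100% = zero luminescence signal; higher percent means less beta-gal luminescence so fewer parasites; stock transfer was 50 nL into about 50 µL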
Beta cell apopt: blocks beta cell apoptosis; INS-1E cytokine-induced death, ATP luminescence, 48 h; percent of positive-control rescue, neutral wells zero; protection from apoptosis, % (concentration not given with the values); 300,000 tested, 0.8% active; AID 435005;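 active = all replicates at 75% or more, or half of them and the mean; inconclusive = half reach 75% but not the mean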;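 also: 0% = cytokine-treated negative control wells and 100% = positive control rescue; higher means more ATP so stronger rescue from cytokine killing; wells of about 40 µL received 100 nL stock; the first replicate is given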
Bfl-1 A1 inh: inhibitors of the anti-apoptotic protein A1, read as caspase activation. MEF A1-2A-BIM cells, Caspase-Glo 3/7 luminescence, 3 h; percent of clofoctol response, vehicle zero. caspase activation, % (concentration not given with the values). 330,000 tested, 0.066% active. AID 2462;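 active = over half of replicate activation scores above 10%, or exactly half above 10 with the replicate mean above 10; inconclusive = replicate mean below 10 yet half the replicates above 10; inactive = over half of replicates below 10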;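 also: wells of about 30 µL received 50 nL stock; many hits fall short of the cut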
* marks the source's active call; other numbers are inactive results; ? = inconclusive; . = no result given.

SMILES	Calb FLC	LANA-H2A inh	MLL AF4-AF9 inh	Vif A3G	RanGTP-Impb inh	T cruzi repl	Beta cell apopt	Bfl-1 A1 inh
C/C(N)=C(/C#N)C(=O)COC(=O)C1CSC2(c3ccc(F)cc3)CCC(=O)N12 (stereo not drawn)	2	-10	-0.1	.	-6.6	1	-4	0.3
Cc1ccccc1NC(=O)C1CCCN1S(=O)(=O)c1ccc2c(c1)n(C)c(=O)c(=O)n2C (stereo not drawn)	-5	0.3	-3.0	-3%	?	-13	-2	-0.4
CC1(C)CC(NC(=O)Cc2ccccc2[N+](=O)[O-])CC(C)(C)N1	3	3.2	.	.	0.6	-3	1	1.5
Cc1nn(C)c(C)c1NC(=O)CSc1nc(Cc2ccccc2)nc2c1cnn2-c1ccccc1	9	1.3	.	.	0.4	-5	-7	0.1
CCOCC(=O)Nc1cc(C(=O)NCCC(C)C)ccc1Cl	-7	3.5	.	4%	?	4	6	1.0
O=C(CSc1nnnn1C1CCCCC1)N1CCCC1	5	17	-0.5	-3%	2.7	-14	-1	0.0
CCN(CC)C(=O)c1ccccc1NC(=O)c1ccccc1	-2	-4.2	-1.4	16%	1.6	0	-2	0.1
O=C(NCC(=O)N1CCCCC1)c1ccc2ccccc2c1	-8	-1.8	-7.0	-5%	1.3	-11	-3	1.1
O=C(c1cccc2ccccc12)C1CCCN(C(=O)CCCn2cncn2)C1 (stereo not drawn)	45	-1.1	1.0	12%	1.1	4	0	1.0
CCOC(=O)c1cccc(NC(=O)CSc2nnnn2C)c1	28	-2.6	.	-11%	-1.8	2	.	0.1
CCc1nc(C)ccc1OC(=O)C12CC3CC(CC(C3)C1)C2	16	-4.7	-29	11%	1.8	-5	4	-0.2
Cc1ccc(NS(=O)(=O)c2cc([N+](=O)[O-])ccc2NNC(=S)Nc2cc(C)ccc2C)c(C)c1	-4	2.0	.	20%	4.0	9	?	-0.2
CC1CC(C)CN(C(=O)CCS(=O)(=O)c2ccc3c(c2)NC(=O)CS3)C1 (stereo not drawn)	-15	1.4	-0.1	.	-3.9	13	6	-0.3
CCC(C(=O)NC(C)(C)C)N(Cc1ccccc1Cl)C(=O)c1snc(C(N)=O)c1N (stereo not drawn)	10	2.2	1.0	.	2.0	2	-3	1.2
OCCN1CCN(C(=S)Nc2ccccc2)CC1	3	1.9	0.3	.	3.6	-11	-6	0.9
O=S(=O)(c1ccccc1)N1N=C(c2ccc(Br)cc2)CC1c1ccco1 (stereo not drawn)	-1	-2.8	5.3	.	-0.1	19	14	-0.4
CCCC1CC(C)(C(=O)Cn2[nH]c(=O)ccc2=O)OC1=O (stereo not drawn)	17	-1.2	-1.2	-9%	?	-17	-23	-0.2
CC(=O)Oc1ccc(C(=O)Nc2cccc(C(=O)Nc3ccccc3C(=O)O)c2)cc1	2	5.7	-3.1	-4%	1.5	-7	-2	-0.5
CN(C)C(=O)OCc1c(-c2ccccc2)ncc2ccccc12	.	-9.2	1.1	.	.	.	0	0.0
COc1ccc(OC)c(S(=O)(=O)NCc2cn3cccc(C)c3n2)c1	11	-0.1	.	3%	7.0	-13	-2	-0.2
CS(=O)(=O)N(CC(=O)NCc1ccc2c(c1)OCO2)c1cccc(Cl)c1	-19	2.9	0.1	17%	-1.5	-9	-4	0.0
CCc1nc2ccc(C(=O)NCCc3ccco3)cc2nc1CC	23	3.5	.	9%	-0.6	-10	-6	-3.4
C=CCNC(=O)c1ccc(N(C)S(=O)(=O)c2ccc(OC)cc2)cc1	-31	.	.	?	-11	-12	.	.
O=C(Oc1cccc2c(OC(=O)N3CCCC3)cccc12)N1CCCC1	-10	-0.1	.	9%	3.0	-8	2	0.0
Cc1ccc(C(C(=O)NC2CCCC2)N2CCCC(C)C2)cc1 (stereo not drawn)	-8	-1.7	-4.0	2%	?	3	-4	0.6
CC(C)c1ccc2nc3sc(C(=O)N4CCc5ccccc5C4)c(N)c3cc2c1	6	-3.4	.	?	-12	37	.	0.2
COc1ccc(O)c(C(=O)c2coc(=N)c(C(=O)Nc3ccc(SC(F)F)cc3)c2)c1	-1	-5.7	0.6	2%	5.3	0	14	-0.1
CC1CCN(CCCNC(=O)c2ccc(N3CCCC3=O)cc2)CC1	0	3.8	-4.3	-3%	12	28	-4	0.6
Cc1ccc(CNC(=O)CN(C(=O)C2(C)CC(=O)N=C3C=CC=CN32)c2cc(C)ccc2C)cc1 (stereo not drawn)	-2	-3.5	-1.0	-6%	2.2	-4	-5	-0.3
CC1(C)Cc2c(cnn2-c2ccc(F)cc2)C(NC(=O)C2CCC2)C1 (stereo not drawn)	-7	2.0	-0.9	-1%	0.4	-11	3	0.3
CCCNC(=O)c1onc(CSc2nc3ccccc3[nH]2)c1C(=O)NCCC	3	-1.2	-6.1	.	-4.2	-3	-10	1.2
O=C(C[n+]1cccc2ccccc21)c1ccc([N+](=O)[O-])cc1	-22	-2.4	1.0	.	0.7	20	30	2.1
CCCc1nc2oc3cc(OC)ccc3c(=O)c2c(=O)n1CCc1ccccc1	21	-3.8	2.0	-143%	5.6	39	2	1.3
Cc1ccc(C)c(NC(=O)CN(C)C(=O)C2CCCC2)c1	.	1.5	-3.3	.	.	.	-2	0.7
CCC(=O)Nc1c(C(=O)N2CCN(c3ccccn3)CC2)cnn1-c1ccc(Cl)cc1	-3	1.5	.	.	5.7	-3	0	-0.7
COC(=O)c1ccccc1OS(=O)(=O)N(C)C	0	-2.3	-1.3	-7%	5.1	-7	1	-0.1
COc1cccc(N2CC(C(=O)NC3CCCCC3)CC2=O)c1 (stereo not drawn)	.	3.1	.	?	2.5	-19	-1	1.7
CCCCCCCSc1nsc(N)n1	-18	-1.5	.	-3%	?	32	-3	0.0
CC(CCc1ccccc1)NC(=O)c1ccc(Br)cc1 (stereo not drawn)	-17	2.1	-1.2	-11%	0.7	5	-2	0.9
COc1ccc(O)c(/C=N/NC(=O)CCC(=O)Nc2ccc(F)cc2)c1	4	-0.9	-1.4	-4%	6.0	-8	-8	0.3
CCC(C)n1c(=O)c2sccc2n2c(CCCC(=O)N3CCC(C(N)=O)CC3)nnc12 (stereo not drawn)	20	2.8	-1.3	0%	-0.3	4	-4	1.1
CCN(CC)CCCN=C1N[C@@H](c2cccc(F)c2)C(C(=O)OC)=C(C)N1Cc1ccccc1	.	-0.4	-21	.	.	.	-3	-0.4
CC(C)CC1(C)NC(=O)N(CC(=O)NC(=O)Nc2ccc3c(c2)OCCO3)C1=O (stereo not drawn)	-8	-4.7	.	13%	0.8	-2	-5	0.8
CC(C)C1CC(CCN)(c2ccccc2)CCO1 (stereo not drawn)	5	-0.4	3.2	17%	-1.5	-2	-4	0.2
COc1ccc2[nH]c(C(=O)NCCN3CCCCC3)cc2c1	-4	0.0	.	2%	-2.3	5	-2	1.0
O=C(O)C1C2C=CC(O2)C1C(=O)NCc1ccccc1Br (stereo not drawn)	-21	2.6	.	-5%	4.5	-4	3	0.2
CC(=O)c1cccc(NC(=O)COC(=O)c2ccc3c(c2)OCO3)c1	.	0.0	-1.1	-15%	.	.	1	-0.8
Cn1c(=O)cc(OCCCC(=O)N2CCN(c3ccccc3)CC2)c2ccccc21	-6	2.6	.	-2%	-1.7	5	3	0.2
CC1(C)Cc2cccc(OCC(=O)NCCc3ccccc3)c2O1	2	-7.8	-0.6	6%	.	7	-6	1.2
O=C(NNC(=O)c1ccc(Cl)c(Cl)c1)c1ccncc1	-4	2.9	1.4	.	-7.9	-2	2	-0.3
COc1ccc(-c2cc(C(=O)N3CCOCC3)c3ccccc3n2)cc1OC	5	1.7	0.3	8%	-3.1	-5	-6	0.0
O=C(CCN1C(=O)/C(=C\C=C\c2ccccc2)SC1=S)Nc1ccccc1C(=O)O	-4	0.2	2.0	.	-1.8	-4	1	0.3
CCn1ccnc1CN(C)Cc1cn(-c2ccc(C)cc2)nc1-c1ccc(F)cc1	-25	1.8	19	1%	7.2	48	-5	-0.1
CC(=O)Nc1ccc2nc(NC(=O)COc3ccc([N+](=O)[O-])cc3)sc2c1	11	-1.7	-1.2	1%	1.3	5	-3	-0.9
Cc1cc2c(c(=O)n1Cc1cccnc1)C(Cc1ccccc1)C(C#N)=C(N)O2 (stereo not drawn)	-5	-2.6	.	5%	36*	-12	-2	-0.2
O=[N+]([O-])c1cc(-c2n(-c3ccccn3)c3ccccc3[n+]2-c2ccccn2)ccc1Cl	-10	-3.0	6.6	12%	-3.5	13	7	0.4
COc1ccc(-c2csc(Nc3cc(C)ccn3)n2)cc1OC	19	2.5	3.7	.	0.7	10	.	-1.4
O=C(CN1CCC(c2nc3ccccc3s2)CC1)N1CCCCC1	-4	5.7	-0.8	-11%	-2.4	9	1	-1.0
O=C(O)C1CCCN1c1ncnc2c1oc1ccccc12 (stereo not drawn)	21	-3.9	.	3%	1.9	-8	-3	0.0
Cn1c(=O)c2c(ncn2CC(O)CNc2cccc(Cl)c2)n(C)c1=O (stereo not drawn)	6	3.0	0.5	3%	4.0	-5	7	0.3
Continued.
SMILES	Calb FLC	LANA-H2A inh	MLL AF4-AF9 inh	Vif A3G	RanGTP-Impb inh	T cruzi repl	Beta cell apopt	Bfl-1 A1 inh
COc1cc(S(=O)(=O)N2CCOCC2)ccc1NC(=O)COC(=O)/C=C/c1cc(OC)c(OC)c(OC)c1	.	-1.3	-1.5	-1%	.	.	0	-1.2
Cc1cccc(NC2(C(F)(F)F)N=C(c3ccccc3)NC2=O)n1 (stereo not drawn)	3	1.4	4.8	1%	-2.7	-7	2	-0.3
COC(=O)c1c(-n2c(C)cc(C=O)c2C)sc2c1CCCC2	34	2.9	18	21%	6.0	1	0	0.5
CC(NC(=O)CCNC(=O)c1ccc(Br)cc1)c1ccc(S(N)(=O)=O)cc1 (stereo not drawn)	-3	-3.1	-19	9%	?	-8	3	0.0
COc1ccc(CCN2CC(C(=O)NCc3cnn(C(C)C)c3)CCC2=O)cc1 (stereo not drawn)	5	-3.8	-0.6	-7%	0.6	0	-5	-0.6
Nc1nc2sc3c(c2cc1C(=O)N1CCOCC1)CCCC3	-12	2.8	.	-5%	-0.6	-4	-14	-0.7
COC(=O)c1ccccc1S(=O)(=O)N1CCC(C(=O)OCC(=O)c2ccccc2OC)CC1	0	0.2	-1.7	-4%	-3.1	1	-3	0.7
CCSC1=NCCN1S(=O)(=O)c1ccc(F)cc1	9	-4.2	-2.0	-5%	0.9	-14	6	0.2
COc1ccc(NC2CCCN(C(=O)c3ccc4[nH]c(C)c(C)c4c3)C2)cc1OC (stereo not drawn)	14	-5.6	6.8	.	-2.3	-20	5	0.2

2 compounds drawn at random from those above, as already listed:
SMILES	Calb FLC	LANA-H2A inh	MLL AF4-AF9 inh	Vif A3G	RanGTP-Impb inh	T cruzi repl	Beta cell apopt	Bfl-1 A1 inh
COc1ccc(CCN2CC(C(=O)NCc3cnn(C(C)C)c3)CCC2=O)cc1 (stereo not drawn)	5	-3.8	-0.6	-7%	0.6	0	-5	-0.6
Cc1cccc(NC2(C(F)(F)F)N=C(c3ccccc3)NC2=O)n1 (stereo not drawn)	3	1.4	4.8	1%	-2.7	-7	2	-0.3
